Mtb H37Rv: M. tuberculosis H37Rv growth inhibitors, H37Rv strain (AID 1626); M. tuberculosis H37Rv growth inhibition; higher % means a stronger effect; one-dose inhibition, % at 10 µM; IC50 in µM for titrated hits; 0.95% of 220,000 active;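 active means confirmed in a dose series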;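 further: bacteria incubated seven days before Alamar blue readout; 0% = bacteria only wells and 100% = bacteria with antibiotic wells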
RecA intein inh: inhibitors of M. tuberculosis RecA intein splicing; 0.75% of 290,000 active; inhibition, %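 (about 9 µM by stock and volumes)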; AID 2221; P9WHJ3; cell-free RecA intein splicing, fluorescence; in the data active means inhibition above about 30%;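 further: 0% = vehicle wells and 100% = reference inhibitor control wells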
Target sequence (P9WHJ3 whole entry, looked up): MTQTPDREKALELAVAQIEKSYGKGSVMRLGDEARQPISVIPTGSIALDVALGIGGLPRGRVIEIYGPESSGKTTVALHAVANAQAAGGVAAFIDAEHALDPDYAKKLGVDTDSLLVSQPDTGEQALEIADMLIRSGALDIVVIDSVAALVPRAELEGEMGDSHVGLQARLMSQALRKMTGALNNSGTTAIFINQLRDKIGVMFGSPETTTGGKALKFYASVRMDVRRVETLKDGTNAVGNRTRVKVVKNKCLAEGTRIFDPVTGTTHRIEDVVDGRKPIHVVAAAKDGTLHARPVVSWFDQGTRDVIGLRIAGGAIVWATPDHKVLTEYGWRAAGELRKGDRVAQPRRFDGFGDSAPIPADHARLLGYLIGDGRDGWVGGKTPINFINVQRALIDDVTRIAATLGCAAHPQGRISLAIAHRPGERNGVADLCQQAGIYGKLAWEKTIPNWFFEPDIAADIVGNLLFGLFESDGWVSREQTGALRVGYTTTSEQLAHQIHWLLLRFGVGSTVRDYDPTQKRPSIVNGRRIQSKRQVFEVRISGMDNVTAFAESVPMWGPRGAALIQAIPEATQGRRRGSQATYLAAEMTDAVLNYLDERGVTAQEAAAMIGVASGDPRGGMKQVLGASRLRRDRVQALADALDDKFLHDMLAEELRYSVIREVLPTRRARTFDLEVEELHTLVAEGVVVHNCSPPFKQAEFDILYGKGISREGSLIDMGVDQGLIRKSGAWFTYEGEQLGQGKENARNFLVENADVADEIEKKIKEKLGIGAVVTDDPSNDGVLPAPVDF
Arbovirus inh: blocks arbovirus infection. arbovirus infection cell-based antiviral screen. 0.37% of 200,000 active. AID 1251. inhibition, % at 10 µM;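 active means inhibition from about 30%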;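 further: bluetongue infection of BSR cells; cell survival read as ATP light after 72 h; 0% = infected wells without compound and 100% = uninfected wells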
Mtb bLac sens: beta-lactam sensitization of Mtb H37Rv | M. tuberculosis H37Rv growth with meropenem, percent inhibition; hits of this screen are not shown here | inhibition, % at 25 µM | 0.27% of 330,000 active | AID 434955;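 active means about 74% or more and at least 40 points above the plate without the antibiotic, then above 30% in a dose series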;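 further: growth measured after seven days incubation then overnight dye step; 0% = bacteria only wells and 100% = bacteria with antibiotic; twin plates without the antibiotic show which effects depend on it; some results filed as inactive read as strong as hits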
YopH PTP inh: YopH (Yersinia) phosphatase inhibition | 0.16% of 140,000 active | inhibition, %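 (about 10 µM by stock and volumes)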 | AID 898 | fluorescence Ex485/Em525;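 active means inhibition of 50% or more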;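 further: controls were vehicle for no effect and minimum signal wells for full effect; inactives centre near -20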
Active calls of the source: *. These rows are one share of the data; rates above refer to the full screens.

The opening 3 records, ahead of the listing:
Results for NC(=O)CSc1nnc(-c2ccc(S(=O)(=O)N3CCCC3)cc2)n1Cc1ccco1 ?
Mtb H37Rv: 0%; RecA intein inh: 0.3; Arbovirus inh: 0; Mtb bLac sens: 3; YopH PTP inh: -35

What do the screens show for `O=[N+]([O-])c1ccc(/C=N/NC(=S)Nc2ccccc2C(F)(F)F)o1`?
Mtb H37Rv: -2%; RecA intein inh: -1.4; Arbovirus inh: 4; Mtb bLac sens: 97; YopH PTP inh: -11

How did O=C(CN1c2ccccc2Sc2ccccc21)NNC(=S)Nc1ccc(Cl)cc1Cl do in these assays?
RecA intein inh: -3.2; Arbovirus inh: -20; Mtb bLac sens: -2; YopH PTP inh: -32

All compounds of this part, from the start:
Results for NC(=O)CSc1nnc(-c2ccc(S(=O)(=O)N3CCCC3)cc2)n1Cc1ccco1 ?
Mtb H37Rv: 0%; RecA intein inh: 0.3; Arbovirus inh: 0; Mtb bLac sens: 3; YopH PTP inh: -35

What do the screens show for `O=[N+]([O-])c1ccc(/C=N/NC(=S)Nc2ccccc2C(F)(F)F)o1`?
Mtb H37Rv: -2%; RecA intein inh: -1.4; Arbovirus inh: 4; Mtb bLac sens: 97; YopH PTP inh: -11

How did O=C(CN1c2ccccc2Sc2ccccc21)NNC(=S)Nc1ccc(Cl)cc1Cl do in these assays?
RecA intein inh: -3.2; Arbovirus inh: -20; Mtb bLac sens: -2; YopH PTP inh: -32

What do the screens show for `Nc1nc(Nc2ccc(Cl)cc2)nc(NCc2ccco2)c1[N+](=O)[O-]`?
Mtb H37Rv: 19%; RecA intein inh: 4.0; Mtb bLac sens: 5

What do the screens show for `COc1ccccc1NC(=O)Nc1c(C)nn(C)c1C`?
Mtb H37Rv: 10%; RecA intein inh: 0.0; Arbovirus inh: 11; Mtb bLac sens: -1

Results for COc1ccc2[nH]c3nc(SCc4nnc(-c5ccccc5)o4)nnc3c2c1 ?
Mtb H37Rv: -6%; RecA intein inh: 0.0; Arbovirus inh: 3; Mtb bLac sens: 4; YopH PTP inh: -33

What do the screens show for `CC(C)(C)c1ccc(C(=O)NN2C(=O)CSC2=S)cc1`?
Mtb H37Rv: -21%; RecA intein inh: 2.2; Mtb bLac sens: -3

How did CC(C)CN(C(=O)CCCc1nc2ccccc2c(=O)[nH]1)c1c(N)n(Cc2ccccc2)c(=O)[nH]c1=O do in these assays?
RecA intein inh: -4.8; Mtb bLac sens: -12

What do the screens show for `CCOC(=O)C(C)c1ccc2cc(OC)ccc2c1` (stereo not given)?
Mtb H37Rv: 3%; RecA intein inh: 1.8; Arbovirus inh: -3; Mtb bLac sens: -11; YopH PTP inh: -24

What do the screens show for `c1ccc2c3c([nH]c2c1)CNCC3`?
Mtb H37Rv: -9%; RecA intein inh: -3.0; Arbovirus inh: -4; Mtb bLac sens: -6; YopH PTP inh: -25

How did COc1ccc(CCC(C)NCC(C)c2ccccc2)cc1 (stereo not given) do in these assays?
RecA intein inh: -1.1; Mtb bLac sens: -6

How did COc1cccc(OC)c1OCCCOc1c(OC)cccc1OC do in these assays?
Mtb H37Rv: 3%; RecA intein inh: 1.9; Arbovirus inh: -2; Mtb bLac sens: -6; YopH PTP inh: -25

How did Cc1cc(C(=O)COC(=O)CNS(=O)(=O)c2ccc3ccccc3c2)c(C)n1-c1ccccc1 do in these assays?
Mtb H37Rv: 2%; RecA intein inh: 16; Arbovirus inh: -8; Mtb bLac sens: -4; YopH PTP inh: -14

Results for COc1cc(C(=S)N2CCOCC2)ccc1OC(=O)c1ccc(Br)cc1 ?
RecA intein inh: 3.8; Mtb bLac sens: 1

What do the screens show for `O=C(Cc1cccs1)NCc1ccncc1`?
RecA intein inh: 3.2; Arbovirus inh: 1; Mtb bLac sens: 4; YopH PTP inh: -34

What do the screens show for `COc1ccc(-c2cc(-c3ccccc3)nc(NN)n2)cc1OC`?
RecA intein inh: -3.7; Mtb bLac sens: -6

How did COc1cccc(/C=C/C(=O)Nc2ccc3c(c2)OCCO3)c1OC do in these assays?
Mtb H37Rv: 9%; RecA intein inh: 3.8; Arbovirus inh: 6; Mtb bLac sens: 5

Results for CCOC(=O)CC1(NC(=O)C2CCC(=O)N(Cc3ccccc3OC)C2)CCCCC1 (stereo not given) ?
RecA intein inh: 0.7; Mtb bLac sens: -5

How did O=C(CCCn1cnc([N+](=O)[O-])n1)Nc1cccc(Cl)c1Cl do in these assays?
Mtb H37Rv: 1%; RecA intein inh: -1.2; Arbovirus inh: -1; Mtb bLac sens: 4; YopH PTP inh: -29

What do the screens show for `c1csc(C(c2nnnn2C2CCCCC2)N2CCCC3(CCCCC3)C2)c1` (stereo not given)?
RecA intein inh: -0.3; Arbovirus inh: 3; Mtb bLac sens: -3; YopH PTP inh: -22

What do the screens show for `COc1ccc(N2C(=O)CC(c3cc(OC)c(OC)c(OC)c3)CC2=O)cc1`?
RecA intein inh: 2.2; Mtb bLac sens: -1

What do the screens show for `Cc1c(NC(=O)CSc2ccc3c(c2)OCCO3)c(=O)n(-c2ccccc2)n1C`?
Mtb H37Rv: -8%; RecA intein inh: -1.7; Arbovirus inh: -5; Mtb bLac sens: -10; YopH PTP inh: 5

How did CCOC(=O)C1CCN(S(=O)(=O)c2cc(F)ccc2OC)CC1 do in these assays?
Mtb H37Rv: -1%; RecA intein inh: -1.3; Arbovirus inh: 4; Mtb bLac sens: 3

How did CSCCC(NC(=O)c1ccccc1)C(=O)Nc1ccc(C)cc1 (stereo not given) do in these assays?
Mtb H37Rv: 15%; RecA intein inh: -0.5; Arbovirus inh: 1; Mtb bLac sens: 1; YopH PTP inh: -9

What do the screens show for `COc1cc(NC(=S)NN2CCN(C)CC2)cc(OC)c1OC`?
Mtb H37Rv: -1%; RecA intein inh: -2.7; Arbovirus inh: 5; Mtb bLac sens: 7

How did Cc1ccc(-n2nc(C)c(C3C(C#N)=C(N)Oc4c3c(=O)oc3ccccc43)c2Cl)cc1 (stereo not given) do in these assays?
RecA intein inh: 2.1; Arbovirus inh: 8; YopH PTP inh: 6

How did NC(=O)[C@@H]1CCCN1C(=O)c1ccc2nc(Cc3cccc(Cl)c3)oc2c1 do in these assays?
RecA intein inh: -4.7; Mtb bLac sens: -5

Results for CCCCCC(=O)Nc1cccc(C2=NOC3(C2)C[C@@H](C(N)=O)N(C(=O)c2cc([N+](=O)[O-])cc([N+](=O)[O-])c2)C3)c1 (stereo not given in full) ?
Mtb H37Rv: 2%; RecA intein inh: 0.3; Mtb bLac sens: 100

What do the screens show for `CCC1CCCCN1S(=O)(=O)c1ccccc1[N+](=O)[O-]` (stereo not given)?
Mtb H37Rv: -1%; Arbovirus inh: -3; Mtb bLac sens: -6

What do the screens show for `CCn1c(N2CCN(CC(=O)c3c(C)n(C)c4ccccc34)CC2)nc2c1c(=O)[nH]c(=O)n2C`?
Mtb H37Rv: -5%; RecA intein inh: 1.1; Arbovirus inh: 0; Mtb bLac sens: -33; YopH PTP inh: -17

How did Cc1ccc(N/N=C(\C#N)C(=N)N2CCOCC2)cc1 do in these assays?
Mtb H37Rv: 0%; RecA intein inh: 3.5; Arbovirus inh: 3; Mtb bLac sens: 9; YopH PTP inh: -15

Results for N#CC1=C(SCc2ccccc2Cl)NC(=O)C(C(N)=O)C1 (stereo not given) ?
Mtb H37Rv: -3%; RecA intein inh: -1.7; Arbovirus inh: 13; Mtb bLac sens: 2; YopH PTP inh: -10

Results for CCCCn1c(SCC2CCCCO2)nc2cc(S(N)(=O)=O)ccc21 (stereo not given) ?
Mtb H37Rv: 9%; RecA intein inh: -1.4; Arbovirus inh: 4; Mtb bLac sens: 2; YopH PTP inh: -23

Results for Cc1c(OCC(=O)N(C)c2ccccc2)ccc2c3c(c(=O)oc12)CCC3 ?
RecA intein inh: 3.0; Mtb bLac sens: -2

What do the screens show for `Cc1cc(Sc2nnc(N)s2)c2ccccc2n1`?
Mtb H37Rv: -7%; RecA intein inh: 11; Mtb bLac sens: 70

Results for CCCCS(=O)(=O)N1CCCC(C(=O)NCCc2ccccc2)C1 (stereo not given) ?
RecA intein inh: -0.6; Mtb bLac sens: -3

Results for Cc1ccc(OC(=O)c2cncc(Br)c2)c(C)c1 ?
RecA intein inh: 1.3; Mtb bLac sens: 81

Results for CCOc1ccc(Cn2c(C)nc([N+](=O)[O-])c2SCC(O)CCl)cc1[N+](=O)[O-] (stereo not given) ?
Mtb H37Rv: -3%; RecA intein inh: 0.6; Arbovirus inh: -5; Mtb bLac sens: 2; YopH PTP inh: -1

What do the screens show for `N#Cc1cc2ccccc2nc1SCC(=O)NC1CC1`?
RecA intein inh: 2.7; Mtb bLac sens: 1

Results for CSC(=S)NCc1cccnc1 ?
Mtb H37Rv: 5%; RecA intein inh: 0.1; Arbovirus inh: 6; Mtb bLac sens: 98

Results for CCn1c(/C(C#N)=C(\O)CCc2ccccc2)nc2ccccc21 ?
Mtb H37Rv: -5%; RecA intein inh: -2.8; Arbovirus inh: -2; Mtb bLac sens: 49; YopH PTP inh: -30

How did COc1ccc(CCNC(=O)C(=O)c2c(C)n(C)c3ccccc23)cc1OC do in these assays?
RecA intein inh: -2.0; Mtb bLac sens: 2

How did CCOn1c(=O)c(C)[n+]([O-])c2ccccc21 do in these assays?
Mtb H37Rv: 4%; RecA intein inh: -1.9; Arbovirus inh: 3; Mtb bLac sens: -12; YopH PTP inh: -19

Results for CN(CC(=O)Nc1ccc(Cl)cc1)C(=O)c1ccc(NS(=O)(=O)c2ccc3[nH]c(=O)[nH]c3c2)cc1 ?
RecA intein inh: 0.4; Mtb bLac sens: -9

How did Cc1cc(NC(=O)CSc2nc(=O)n3cccc(C)c3n2)no1 do in these assays?
RecA intein inh: -2.7; Mtb bLac sens: -2

How did CN(NC(=O)c1ccccc1F)c1ccc([N+](=O)[O-])cn1 do in these assays?
Mtb H37Rv: -32%; RecA intein inh: -2.9; Mtb bLac sens: 63

What do the screens show for `COC(=O)CN1C(=O)[C@H]2[C@@H](C3CC3)N3C(=O)CN(Cc4ccccn4)C(=O)[C@@]3(Cc3ccccc3)[C@H]2C1=O`?
RecA intein inh: -1.5; Mtb bLac sens: -7

What do the screens show for `CCCOC(=O)c1ccc(Cl)c(NC(=O)c2ccc(-c3ccccc3)cc2)c1`?
Mtb H37Rv: -5%; RecA intein inh: -5.4; Arbovirus inh: -6; Mtb bLac sens: 4; YopH PTP inh: -20

How did COc1cc(CCC(=O)OCC(=O)NCc2ccc(Cl)cc2)cc(OC)c1OC do in these assays?
Mtb H37Rv: -2%; RecA intein inh: -2.8; Arbovirus inh: 6; Mtb bLac sens: -6

What do the screens show for `Cc1cc(C(=O)CSc2nn(-c3ccccc3)c(=S)s2)c(C)n1Cc1ccco1`?
Mtb H37Rv: -11%; RecA intein inh: -4.2; Arbovirus inh: 9; Mtb bLac sens: 11; YopH PTP inh: -10

What do the screens show for `O=C(N1CCN(c2ccccc2)CC1)C(F)(F)C(F)(F)F`?
Mtb H37Rv: 0%; RecA intein inh: 0.2; Arbovirus inh: 6; Mtb bLac sens: -6; YopH PTP inh: -14

What do the screens show for `CC1(C(=O)NC23CC4CC(CC(C4)C2)C3)CC1(Cl)Cl` (stereo not given)?
Mtb H37Rv: 4%; RecA intein inh: -1.3; Arbovirus inh: 6; Mtb bLac sens: 5; YopH PTP inh: -20

How did COc1ccc(/C=C2\CCCc3c2nc2ccc(C)cc2c3C(=O)O)cc1O do in these assays?
Mtb H37Rv: -11%; RecA intein inh: -2.3; Mtb bLac sens: 24

How did COc1ccccc1N1CCN(S(=O)(=O)c2ccc(-c3ccc(=O)[nH]n3)o2)CC1 do in these assays?
RecA intein inh: -2.3; Mtb bLac sens: 2

How did CCOC(=O)c1ccc(NC(=O)c2ccc3c(c2)C(=O)N(CC2CCCO2)C3=O)cc1 (stereo not given) do in these assays?
RecA intein inh: 1.7; Mtb bLac sens: 35

What do the screens show for `COCCCn1c(C(=O)N2CCOCC2)cc2c(=O)n3ccccc3nc21`?
RecA intein inh: -95; Mtb bLac sens: -3

What do the screens show for `Cc1cc(C)cc(Oc2c(C(F)(F)F)oc3cc(OCC(=O)O)ccc3c2=O)c1`?
RecA intein inh: 3.9; Mtb bLac sens: 1

What do the screens show for `COc1ccc(OC)c(S(=O)(=O)Nc2cccc3ccc(O)cc23)c1`?
RecA intein inh: 0.2; Mtb bLac sens: -9

How did O=C(c1ccco1)N1CCN(S(=O)(=O)c2ccc(S(=O)(=O)NC3CC3)cc2)CC1 do in these assays?
Mtb H37Rv: -5%; RecA intein inh: 0.8; Arbovirus inh: 6; Mtb bLac sens: 1; YopH PTP inh: -3

How did COc1cc(C(=O)COC(=O)C2CCN(c3ccc(C(F)(F)F)cn3)CC2)ccc1OC(F)F do in these assays?
RecA intein inh: -0.6; Mtb bLac sens: 1

Results for COc1ccc(C2=C/C(=C\c3cccc(OC(C)=O)c3)C(=O)O2)cc1 ?
Mtb H37Rv: 2%; RecA intein inh: 0.0; Arbovirus inh: -6; Mtb bLac sens: 12; YopH PTP inh: -16

What do the screens show for `O=C(Cc1ccccc1)N1CCN(Cc2cccnc2)CC1`?
Mtb H37Rv: 7%; RecA intein inh: -1.0; Arbovirus inh: 10; Mtb bLac sens: 1; YopH PTP inh: -14

What do the screens show for `CCCCCC1CC(CC(=O)Nc2ccc([N+](=O)[O-])cc2)OC1=O` (stereo not given)?
RecA intein inh: -2.3; Mtb bLac sens: 3
